HSD17B inhib – blocks hydroxysteroid 17-beta dehydrogenase activity; Potency, µM (top dose mostly 57.1 µM), for the others: top-dose activity change, negative = inhibition, hits mostly inhibitors; Q99714; recombinant HSD17B10, NADH fluorescence kinetic; many of its hits are not listed in these tables; AID 893; actives 7.6% (n = 75,000); active means well fitted inhibition curve with a large enough effect; inconclusive means small, poorly fitted or top-dose-only effect; inactive means no such curve, though single readings can be large or run the other way;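 further: the protocol describes HADH2 (HSD17B10) and not the HSD17B4 of the title; nearly all actives have a fitted effect of over 70% in size; most hits overshoot -100% by far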
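His-tagged E. coli-expressed HADH2 at 20 nM in 100 mM Tris-HCl pH 9.0 with 0.01 % Tween-20, preincubated 15 min with compound at room temperature. Reaction with 1 mM NAD+ and 90 uM beta-hydroxybutyryl coenzyme A; NADH fluorescence (360/450 nm) read kinetically over 4 min, last minus first point.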
* hit, by the source's call; ? = inconclusive; [ ] = remark or other dose. On the % scale 0 is the no-effect control and ±100 the full control effect; potency means the concentration at half of the fitted maximal effect. The list is partial; count on the stated rates, not on these rows.

SMILES,HSD17B inhib
CCOC(=O)C1CCCN(C(=O)c2cc(-c3ccc(C)cc3)on2)C1 (stereo not drawn),1%
COc1ccccc1CNc1ccc(N2CCOCC2)c(C(=O)O)c1,?
CC(C)(C)n1nnnc1C(c1cccs1)N(Cc1ccccc1)Cc1ccco1 (stereo not drawn),-9%
CN(C)/C=C1/Sc2ccccc2C1=O,-9%
O=C(c1ccccc1)c1ccc2nc(N3CCN(C(=O)c4ccco4)CC3)c3nncn3c2c1,?
CCN(CC)C(=O)C1CCC(CNS(=O)(=O)c2cccc3cccnc23)CC1 (stereo not drawn),-1%
O=C(c1cc(C(F)(F)F)cc(C(F)(F)F)c1)N1CCC2(CCCN(Cc3ccncc3)C2)CC1,5%
N#Cc1c(-c2ccco2)c2c([nH]c1=S)CCCC2,16µM*
Cc1cc(C)cc(NC2=NCC(=O)N2Cc2ccccc2)c1,0%
Cc1cc2nn(-c3cccc4ccccc34)nc2cc1N,16µM*
CCOC(=O)c1ccc(NC(=O)CC2COc3ccccc3O2)cc1 (stereo not drawn),-10%
COc1cc([C@H]2[C@@H]3CCCC[C@]3(O)CCN2CC(=O)Nc2ccc(C)cc2C)ccc1O,7%

Later entries.
SMILES,HSD17B inhib
Cc1cc(C)n(C(=O)CCNC(=O)c2ccccc2Br)n1,10%
O=c1c2oc3ccccc3c2ncn1Cc1ccccc1F,7%
COc1ccc(/C=N/n2cnnc2SCCO)cc1OC,?
CCCn1c(C(C)NC(=O)c2ccccc2)nc2ccccc21 (stereo not drawn),-4%
Cc1nc(SCC(=O)O)c2oc3ccccc3c2n1,-6%
O=C(CCn1c(=O)sc2ccccc21)Nc1cccnc1,11%
O=C(Nc1ccc2c(c1)nc1n2CCN(C2CCCCC2)C1)c1ccco1,32µM*
Nc1sccc1C(=O)c1ccccc1,-4%
Cc1ccc(-n2ncc3c(=O)n(-c4ccc(C)c(C)c4)c(C)nc32)cc1,-4%
C=C(C)c1cccc(C(C)(C)NC(=O)NCC2COCCO2)c1 (stereo not drawn),13%
O=C(Nc1ccccc1)c1ccc(NCc2ccco2)c(S(=O)(=O)N2CCOCC2)c1,?
CC(=O)C[C@H](c1ccc([N+](=O)[O-])cc1)c1c(O)c2ccccc2oc1=O,-5%[25.6 µM]

(cont.)
SMILES,HSD17B inhib
O=C(NCCCn1ccnc1)C(F)(F)C(F)(F)C(=O)NCCCn1ccnc1,6%
CC(=O)OC1CC[C@@]2(C)C3=CC(=O)[C@]4(C)C(CC5OC6(OCC(C)CC6Br)C(C)C54)C3CC[C@H]2C1 (stereo partly drawn),5%
COc1c2ccoc2c(OC)c2oc(=O)ccc12,-22%
COc1cc(S(=O)(=O)N2CCOCC2)c(OC)c(S(=O)(=O)N2CCOCC2)c1,10%
CCOC(=O)N1CCN(C(=O)c2ccc3nc(N4CCC(C)CC4)sc3c2)CC1,-10%
COCCn1c(SCC(=O)Nc2ncc(Cl)c(C)c2Cl)nc2ccccc21,-2%
O=C1c2ccccc2NC(c2ccc3c(c2)OCO3)N1O (stereo not drawn),-6%
CCOc1ccc(NC(=O)CCN2CCN(S(=O)(=O)c3cc(Cl)ccc3OC)CC2)cc1,1%
Cn1c(/N=C/c2ccc3c(c2)OCO3)nc2ccccc21,6%
CCCC1CC(c2csc(N)n2)CCO1 (stereo not drawn),-6%
[N-]=[N+]=NCC1OC(n2cnc3c(=O)[nH]c(N)nc32)C(O)C1O (stereo not drawn),8%
Cc1cc(C)c(C#N)c(SCC(=O)Nc2ccc(S(=O)(=O)Nc3onc(C)c3C)cc2)n1,121%[activator]

Carrying on:
SMILES,HSD17B inhib
CC1CN(c2oc(Cc3cccc4ccccc34)nc2C#N)CC(C)O1 (stereo not drawn),1%
O=C(c1cccs1)N1CCCc2ccccc21,-7%
O=c1c2ccccc2nc(SCc2cn3ccsc3n2)n1-c1ccc(F)cc1,14%
O=C(c1cccs1)N1CCC(c2nc(-c3ccc(S(=O)(=O)N4CCOCC4)cc3)no2)CC1,-5%
COc1ccc(N2CCN(CC(=O)Nc3cc(C)on3)CC2)cc1,10%
O=C(c1cc(-c2ccc(O)cc2)on1)N1CCc2ccccc2C1,-10%
O=C(NCc1ccc2c(c1)OCO2)c1ccc(CS(=O)(=O)c2cccc(C(F)(F)F)c2)o1,-4%
CC(C)(CSc1nncn1N)NS(=O)(=O)c1ccc(Cl)cc1,-5%
Cc1nnc(SCC(=O)NCc2cccs2)n1-c1ccccc1,0%
CCc1cccc(C)c1NC(=O)c1ccoc1C,-5%
Cc1cc(NC(c2cccnc2)c2c(C)[nH]c3ccccc23)no1 (stereo not drawn),2%
CCOC(=O)C1=C(C)NC2=C(C(=O)CCC2)C1c1ccsc1 (stereo not drawn),?

Next section:
SMILES | HSD17B inhib
COc1ccc(CSC2=C(C#N)C(=O)NC3(CCCCC3)S2)cc1 | -7%[11.4 µM]
O=C(CSC1=NCCS1)Nc1ccnc2ccccc12 | -1%
CCOC(=O)C(C)Sc1nnc(CNC(=O)c2ccc(OC)cc2)n1C1CCCCC1 (stereo not drawn) | -1%
O=C(NCCn1ccc2ccccc21)c1ccc(S(=O)(=O)N2CCCCC2)cc1 | -2%
Cc1ccc(S(=O)(=O)c2nc(-c3ccc(F)cc3)oc2SCC(=O)NCC2CCCO2)cc1 (stereo not drawn) | -8%
CC1(C)NC(=O)N(CCCOc2ccc(Br)cc2Cl)C1=O | 1%
Cc1nc2nc(C)c(CCC(=O)N3CCOCC3)c(C)n2n1 | 2%
CCc1cccc(C)c1NC(=O)CSc1nc2ccccc2n1CC(=O)N(C)C | 6%
Clc1cc(Cl)c(Cl)c(Cl)c1Cl | 3%
O=C(NCc1ccc(N2CCCC2=O)cc1)Nc1cccc(Cl)c1 | 2%

(continued)
SMILES | HSD17B inhib
CS(=O)(=O)N(CCc1ccccc1)CC(=O)N1CCCCC1 | 2%
O=C(NCCC1=CCCCC1)C1CCN(S(=O)(=O)c2cccc3nonc23)CC1 | 4%
CCCCC(=O)Nc1nc2ccc3nc(C)sc3c2s1 | 1%
CC(=O)c1cccc(NC(=O)c2c(F)c(F)c(F)c(F)c2F)c1 | 1%
CCC(c1nnc(SCC(=O)Nc2nnc(-c3ccccc3)o2)n1Cc1ccccc1)N(C)C (stereo not drawn) | -2%
CC1=C(C(=O)OCc2ccc3c(c2)OCO3)C(c2ccc(F)cc2)NC(=O)N1 (stereo not drawn) | -9%
O=C(O)CCCC(=O)N1CC(=O)Nc2ccccc21 | 14%
CCS(=O)(=O)N1CCN(c2ccccc2F)CC1 | -1%
O=C(N1CCOCC1)N1CCCN(C(=O)N2CCOCC2)CC1 | 4%
Cc1ccc(S(=O)(=O)N[C@H]2COC(=O)[C@H](C)COC(=O)C/C=C\[C@H]2C)cc1 | 8%[11.4 µM]

Remaining list, next part
SMILES | HSD17B inhib
CC1=CC(=O)[C@@H]2C[C@H]1C2(C)C | 3%
Cc1cc(Oc2ccc(Cl)cc2)nc(-c2ccccc2O)n1 | 1%
CNC(=O)c1cc2c(s1)CCCCCC2 | -6%
CCOC(=O)c1ccc(NC(=O)CCc2c(C)nc3ncnn3c2C)cc1 | -6%
CCCc1nnc(NC(=O)CN2C(=O)C3C4C=CC(C4)C3C2=O)s1 (stereo not drawn) | -2%
COc1ccc(-n2ncc3c(NCc4ccc5c(c4)OCO5)ncnc32)cc1 | ?
O=C(O)c1c(-c2nccc3ccccc23)[nH]c(-c2ccccc2)c1S(=O)(=O)O | -2%[11.4 µM]
O=C1CN(c2ccc(Br)cc2)C(=O)N1CC(=O)N1CCCc2ccccc21 | -3%
CC1Cc2cc(/C(O)=C3/C(=O)C(=O)N(CCN4CCOCC4)C3c3cccc(Cl)c3)ccc2O1 (stereo not drawn) | -23%
O=C(CN(CC1CCCO1)S(=O)(=O)c1ccc(S(=O)(=O)NC2CC2)cc1)Nc1ccccc1 (stereo not drawn) | 7%

(next part)
SMILES | HSD17B inhib
CCCC1Cc2nc(N3CCCCC3)c(C#N)cc2CO1 (stereo not drawn) | 32µM*
CCC(=O)Nc1c2c(nn1-c1cccc(Cl)c1)CSC2 | 3%
CCOC(=O)c1cnn(-c2ncnc3sc4c(c23)CCC4)c1N | 1%
Cc1noc(C)c1C(=O)N1CCC2(CCN(Cc3ccncc3)CC2)CC1 | 3%
O=C(NCC(c1cccnc1)N1CCN(c2ccc(F)cc2)CC1)OCc1ccccc1 (stereo not drawn) | -5%
O=C(NC1CCCC1)c1csc2c1CCCC2 | 7%
COc1ccccc1-c1nnc(SCC(=O)Nc2ccccc2)o1 | -20%
O=C(COC(=O)CSCC(=O)N1CCCCC1)NCc1ccc(F)cc1 | -4%
Cc1ccc(-c2nn(CC(C)(C)C)c3ncnc(N)c23)cc1 | 5%
Cc1noc(NS(=O)(=O)c2ccc(NC(=O)CSc3nc4ccccc4[nH]3)cc2)c1C | -6%

Additional records follow.
SMILES | HSD17B inhib
Cc1ccc(CN(Cc2cc3cccc(C)c3[nH]c2=O)C(=O)N(C)C)cc1 | 1%
Cc1noc(C)c1S(=O)(=O)N1CCN(C(c2ccccc2)c2ccc(Cl)cc2)CC1 (stereo not drawn) | 6%
COc1ccc(N2CCN(C3CC(=O)N(c4ccc5c(c4)OCCO5)C3=O)CC2)cc1 (stereo not drawn) | 14%
CCCCCNC(=O)c1ccc2c(=O)n(CC3CCCO3)c(=O)[nH]c2c1 (stereo not drawn) | 32µM*
Cc1ccc(C(=O)NCc2ccc3c(c2)OCO3)cc1S(=O)(=O)N1CCCCC1 | -2%
CCn1cnc2cc(NCc3cccc(OC)c3O)ccc21 | ?
COC(=O)c1ccc(Oc2ccc3nnc(C)n3n2)cc1 | -4%
COc1ccc(S(=O)(=O)NC2CCCCC2)cc1C | 1%
O=C(CC(C(=O)O)C1CCCO1)Nc1cccc(C(F)(F)F)c1 (stereo not drawn) | 3%
COCCOC(=O)c1c(NC(=O)CN2CCOCC2)sc(C(N)=O)c1C | 0%

Continued:
SMILES | HSD17B inhib
O=C(Nc1ccc(N2CCN(C(=O)c3ccccc3)CC2)cc1)c1ccc(Br)o1 | 0%
CC(=O)c1cccc(NC(=O)Nc2ccc(C(=O)N3CCOCC3)cc2)c1 | 2%
NC(=O)C1(N2CCCCC2)CCN(C(=O)c2ccccc2)CC1 | -1%
COc1ccccc1CNc1nc2ccccc2n1CCN1CCCCC1 | -3%
COc1cccc(C2NC(=O)NC(C)=C2C(=O)Nc2ccc(C)cc2)c1OC (stereo not drawn) | -3%
CCCNS(=O)(=O)c1ccc(C(=O)NCC2CCCO2)cc1 (stereo not drawn) | -2%
COc1cccc(Cn2cccc(NC(=O)NC3CCCCC3)c2=O)c1 | 25µM*
COc1ccc(CCNC(=O)CN(c2ccccc2OC)S(C)(=O)=O)cc1 | ?
CCC(=O)N1CCc2cc(S(=O)(=O)NCCC(=O)N3CC=C(c4ccccc4)CC3)ccc21 | -9%
O=c1cc(CO)oc(CN2CCN(c3ccccc3F)CC2)c1O | 4%

Going on with the list.
SMILES | HSD17B inhib
Cc1cc(O)c(C2(C(F)(F)F)NCCNC2=O)cc1C (stereo not drawn) | 10%
O=C(O)c1ccc(/C=N\N=C2c3ccccc3-c3ccccc32)cc1 | 3%[11.4 µM]
CCCCn1c(SCC(=O)O)nc2ccccc21 | 2%
C=CCN(C(=O)Cn1nnc2ccccc21)C(C(=O)NCCOC)c1ccc(OC)cc1OC (stereo not drawn) | -1%
COCCCN1CN(S(=O)(=O)c2ccc(Cl)cc2)c2nc3ccccc3nc21 | ?
CC1CC(C)CN(CCCNC(=O)c2ccc(CS(=O)(=O)Cc3ccccc3F)o2)C1 (stereo not drawn) | 0%
CCOC(=O)C1CCN(C(=O)COc2ccc(S(=O)(=O)NC(C)C)cc2Cl)CC1 | 11%
CN(CC(=O)N1CC=C(c2ccccc2)CC1)S(=O)(=O)c1ccc2c(c1)c(=O)n(C)c(=O)n2C | ?
COc1ccc(CCN(Cc2nc3ccccc3c(=O)[nH]2)C(=O)c2ccco2)cc1 | -2%
CCOc1ccc(-c2cc(CCCC(=O)NCCCOC)no2)cc1 | 1%

Other entries:
SMILES | HSD17B inhib
Cc1ccccc1NCN1C(=O)C2C3C=CC(C3)C2C1=O (stereo not drawn) | 17%
O=C1c2ccccc2C(O)N1Cc1ccccc1 (stereo not drawn) | 7%
CCOC(=O)c1ccccc1NC(=O)c1cc(S(=O)(=O)N2CCOCC2)ccc1F | ?
COC(=O)c1cc(NC(=O)CCc2c(C)nc3ncnn3c2C)cc(C(=O)OC)c1 | 10%
Cc1cc2cc(CN3C(=O)c4ccccc4C3=O)ccc2[nH]1 | 3%

Molecules from the list above that have an aryl thioether with sulfur outside any ring:
SMILES | HSD17B inhib
COc1ccc(/C=N/n2cnnc2SCCO)cc1OC | ?
Cc1nc(SCC(=O)O)c2oc3ccccc3c2n1 | -6%
COCCn1c(SCC(=O)Nc2ncc(Cl)c(C)c2Cl)nc2ccccc21 | -2%
Cc1cc(C)c(C#N)c(SCC(=O)Nc2ccc(S(=O)(=O)Nc3onc(C)c3C)cc2)n1 | 121%[activator]
O=c1c2ccccc2nc(SCc2cn3ccsc3n2)n1-c1ccc(F)cc1 | 14%
CC(C)(CSc1nncn1N)NS(=O)(=O)c1ccc(Cl)cc1 | -5%
Cc1nnc(SCC(=O)NCc2cccs2)n1-c1ccccc1 | 0%
CCOC(=O)C(C)Sc1nnc(CNC(=O)c2ccc(OC)cc2)n1C1CCCCC1 (stereo not drawn) | -1%
Cc1ccc(S(=O)(=O)c2nc(-c3ccc(F)cc3)oc2SCC(=O)NCC2CCCO2)cc1 (stereo not drawn) | -8%
CCc1cccc(C)c1NC(=O)CSc1nc2ccccc2n1CC(=O)N(C)C | 6%
CCC(c1nnc(SCC(=O)Nc2nnc(-c3ccccc3)o2)n1Cc1ccccc1)N(C)C (stereo not drawn) | -2%
COc1ccccc1-c1nnc(SCC(=O)Nc2ccccc2)o1 | -20%
Cc1noc(NS(=O)(=O)c2ccc(NC(=O)CSc3nc4ccccc4[nH]3)cc2)c1C | -6%
CCCCn1c(SCC(=O)O)nc2ccccc21 | 2%

High-throughput results (PubChem BioAssay)
